# Compound activity from PubChem.
# RanGTP-Imp inh: inhibitors of RanGTP-importin-beta interaction, primary screen, biochemical, FRET, CFP-Ran, YFP-importin-beta, homogeneous; hit rate 1.1% among 300,000; cell-free CFP-Ran/YFP-importin-beta FRET ratio; Ran GTPase (GTP-bound) - importin-beta complex; inhibition, % (no concentration beside the values);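 active = most replicates above 15%; inconclusive = exactly half above 15%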;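 also: 0% = DMSO wells and 100% = Ran loaded with GDP instead of GTP; wells of about 40 µL received 100 nL stock; the first replicate is given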
# LANA-H2A inh: blockers of LANA interaction with H2A/H2B – biochemical, FP readout, HTS, primary screen. Protein LANA1 (Human herpesvirus 8 type P (isolate GK18)), Q9QR71. cell-free LANA-H2A/H2B peptide, fluorescence polarization. inhibition, % (concentration not given with the values). hit rate 0.6% among 320,000. AID 2629, 2010; in the data active = inhibition mostly above about 10%, no sharp cut-off; inactive = mostly below about 6.7%;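 also: stock transfer was 7.5 nL into about 10 µL; 0% = median of vehicle wells and 100% = median of positive control wells; one replicate is shown; the record names a cut of 25% in any replicate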
# Target sequence (Q9QR71 whole entry, looked up): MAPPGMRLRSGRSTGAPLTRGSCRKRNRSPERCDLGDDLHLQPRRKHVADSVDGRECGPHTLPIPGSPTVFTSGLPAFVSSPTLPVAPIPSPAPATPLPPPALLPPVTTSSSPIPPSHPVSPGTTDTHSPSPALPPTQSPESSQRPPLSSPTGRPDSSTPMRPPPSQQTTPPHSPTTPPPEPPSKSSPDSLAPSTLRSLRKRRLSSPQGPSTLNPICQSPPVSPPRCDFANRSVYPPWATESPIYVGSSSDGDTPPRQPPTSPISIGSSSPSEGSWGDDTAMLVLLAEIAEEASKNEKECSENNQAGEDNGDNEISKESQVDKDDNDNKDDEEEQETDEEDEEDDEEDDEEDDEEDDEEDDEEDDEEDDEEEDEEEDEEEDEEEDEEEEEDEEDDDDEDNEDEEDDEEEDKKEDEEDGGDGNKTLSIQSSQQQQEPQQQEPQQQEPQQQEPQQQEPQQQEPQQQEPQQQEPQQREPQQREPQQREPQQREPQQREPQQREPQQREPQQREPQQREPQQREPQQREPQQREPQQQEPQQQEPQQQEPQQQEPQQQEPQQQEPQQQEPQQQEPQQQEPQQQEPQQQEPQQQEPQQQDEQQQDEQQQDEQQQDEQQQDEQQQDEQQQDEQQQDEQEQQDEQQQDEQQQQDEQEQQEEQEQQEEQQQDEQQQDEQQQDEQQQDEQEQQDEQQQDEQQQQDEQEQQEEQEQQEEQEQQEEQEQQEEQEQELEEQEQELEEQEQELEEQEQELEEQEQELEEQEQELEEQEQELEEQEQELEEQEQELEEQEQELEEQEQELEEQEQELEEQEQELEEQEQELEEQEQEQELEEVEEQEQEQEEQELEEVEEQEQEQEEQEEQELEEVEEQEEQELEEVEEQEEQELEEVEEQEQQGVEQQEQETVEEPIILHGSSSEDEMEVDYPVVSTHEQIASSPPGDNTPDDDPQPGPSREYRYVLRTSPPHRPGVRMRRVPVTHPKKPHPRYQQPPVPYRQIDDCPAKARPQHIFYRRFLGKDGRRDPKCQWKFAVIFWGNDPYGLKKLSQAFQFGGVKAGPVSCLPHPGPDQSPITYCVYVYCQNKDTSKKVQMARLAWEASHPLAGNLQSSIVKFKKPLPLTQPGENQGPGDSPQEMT
# Calb FLC: C. albicans growth inhibition with fluconazole, primary screen, CaCi-2 strain, Alamar Blue fluorescence | C. albicans CaCi-2 (fluconazole-resistant clinical isolate) + fluconazole, 48 h | growth inhibition, % (concentration not given with the values) | hit rate 0.57% among 300,000 | AID 1979, 2009;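 active = most replicates above 75%; inconclusive = exactly half above 75%; inactive = most below 75%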;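 also: all wells also contain fluconazole at 8 µg/ml as a sub-toxic cotreatment; 0% = median of DMSO wells and 100% = median of geldanamycin control wells; wells of about 8 µL received 7.5 nL stock; the first replicate is given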
# Bfl-1 A1 inh: caspase 3/7 activation in MEF A1-2A-BIM cells, primary screen, A1 inhibitor project, cell-based, luminescence, HTS. Caspase-Glo 3/7 luminescence, 3 h; percent of clofoctol response, vehicle zero. caspase activation, % (concentration not given with the values). hit rate 0.066% among 330,000;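 active = over half of replicate activation scores above 10%, or exactly half above 10 with the replicate mean above 10; inconclusive = replicate mean below 10 yet half the replicates above 10; inactive = over half of replicates below 10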;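 also: wells of about 30 µL received 50 nL stock; many hits fall short of the cut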
# T cruzi repl: inhibitors of intracellular T. cruzi growth, primary screen, luminescence, NIH3T3 host cells; inhibition, % (no concentration beside the values); AID 1885, 2009; T. cruzi beta-gal in NIH3T3, 90 h; hit rate 1.4% among 300,000;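 active = mean inhibition across valid replicates above about 55%, limit read from the data; inconclusive = mean below that limit but half or more replicates reach it; inactive = mean below it, under half of replicates reach it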;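 also: signal also drops with host cell toxicity which is not excluded here; 0% = plate median of DMSO wells and 100% = zero luminescence signal; higher percent means less beta-gal luminescence so fewer parasites; stock transfer was 50 nL into about 50 µL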
# Beta cell apopt: inhibitors of cytokine-induced beta cell apoptosis, primary screen, luminescence; hit rate 0.8% among 300,000; protection from apoptosis, % (test concentration not listed); AID 435005, 2010; INS-1E cytokine-induced death, ATP luminescence, 48 h; percent of positive-control rescue, neutral wells zero;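 active = all replicates at 75% or more, or half of them and the mean; inconclusive = half reach 75% but not the mean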;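 also: 0% = cytokine-treated negative control wells and 100% = positive control rescue; higher means more ATP so stronger rescue from cytokine killing; wells of about 40 µL received 100 nL stock; the first replicate is given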
# Vif TR-FRET: inhibitors of Vif binding to APOBEC3G peptide, primary screen, biochemical, TR-FRET, GST-Vif 1-94, biotin-A3G peptide, dose response retest (AID 1117319); Virion infectivity factor (Human immunodeficiency virus type 1 group M subtype B (isolate …; TR-FRET GST-Vif / biotin-A3G peptide binding; higher % means a stronger effect; test concentration not given here; strong numbers were not always called active; inhibition, %, or IC50 in µM where a hit was titrated; hit rate 0.57% among 260,000;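 active = above the screen mean plus three standard deviations and confirmed in dose response; inconclusive = results disagree or hit not tested in dose response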;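 also: Vif residues 1-94 fused to GST binding biotinylated APOBEC3G peptide 110-148; 0% = full assay without inhibitor and 100% = GST in place of GST-Vif; retest series ran down from 100 µM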
# MLL AF4-AF9 inh: inhibitors of AF4 peptide binding to AF9, primary screen, biochemical, AlphaScreen, biotin-AF4 peptide, FLAG-AF9, single point; hit rate 0.47% among 350,000; AID 651704, 2012; inhibition, % at 10 µM;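 active = every replicate reaching a set inhibition limit, whatever the replicate mean, cut at about 25% in these data; inconclusive = mean inhibition reaches that limit but some replicates miss it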;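 also: 0% = plate neutral control median and 100% = total signal loss; the record names both 10 and 1 µM as test concentration; the first replicate is given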
# The depositor's hits bear a star; ? = inconclusive; . = not tested or not shown; & = joins results of further samples. Outcome played no part in choosing rows. About 4.3% of those tested had a hit in this group.
SMILES,RanGTP-Imp inh,LANA-H2A inh,Calb FLC,Bfl-1 A1 inh,T cruzi repl,Beta cell apopt,Vif TR-FRET,MLL AF4-AF9 inh
CC(OC(=O)Cn1cnc2c1c(=O)n(C)c(=O)n2C)C(=O)N(C)c1ccccc1 (stereo not given),6.1,0.2,1,0.0,0,-3,-3%,2.3
CC12CCC(=O)N1C(C(=O)OCC(=O)Nc1cccc(S(=O)(=O)N3CCCCCC3)c1)CS2 (stereo not given),6.2,.,-7,0.6,8,-11,?,2.9
COc1ccc(/C=N/N=C2/NC(=O)C(CC(=O)NC(C)C)S2)cc1 (stereo not given),-3.4,-6.0,11,0.9,-4,1,4%,-1.7
COCCn1c(SCC(=O)Nc2sc(C)c(C)c2C#N)nnc1-c1ccc(OC)cc1,-0.6,-1.5,0,0.5,10,-3,2%,.
COc1cccc(-c2cc(C(F)(F)F)c(C#N)c(=O)[nH]2)c1,-3.2,-0.7,2,3.0,1,1,-2%,-3.3
CC1=C(C(N)=O)C(c2ccccc2[N+](=O)[O-])n2ncnc2N1 (stereo not given),-4.0,-2.1,2,-0.1,7,-4,5%,-7.1
COc1ccccc1NC(=O)C1=C(C)Nc2nc(-c3cccs3)nn2C1c1cccnc1 (stereo not given),-1.8,-4.9,3,0.5,33,-11,3%,-4.1
CN(CC(=O)Nc1cccc(F)c1)C(=O)CNS(=O)(=O)c1ccc(N(C)C)c([N+](=O)[O-])c1,1.8,-1.3,-3,0.5,4,-5,6%,-6.2
CCCC(=O)OCC(=O)Nc1ccc(OC(F)F)cc1,2.8,5.2,16,0.2,-1,-4,-1%,.
COCCOc1ccc(C(F)(F)F)cc1NC(=O)COC(=O)c1c(C)noc1C,-4.4,1.6,-11,0.5,6,1,-1%,.
COc1ccc(/C=C/C(=O)O)cc1S(=O)(=O)N1CCC(Cc2ccccc2)CC1,-1.7,-4.8,-12,1.8,-13,-5,-1%,-4.4
CCn1nc(C)c([N+](=O)[O-])c1C(=O)NNC(=O)c1ccccc1Cl,-0.5,-4.7,-1,0.4,7,0,-2%,-1.4
COc1ccc(CCNC(=O)c2cnc3ccccc3n2)cc1,3.2,0.6,7,-0.1,2,0,.,-0.5
O=C(Cn1ncc2c([nH]c3ccccc32)c1=O)N1CCN(c2ccc(F)cc2)CC1,-0.7,-4.3,-1,-0.3,-2,-1,.,-2.4
CCN(c1ccc(OC)cc1)S(=O)(=O)c1nnc(NC(=O)COc2ccccc2)s1,-0.3,1.2,-9,1.3,15,-1,7%,-6.2
COc1ccc(C(=O)c2ccccc2)c(OCC(=O)NC2CC2)c1,-3.2,-2.0,26,0.3,1,0,-3%,-9.9
COc1ccc(C2C(=O)N(CCc3ccccc3)CC(=O)N2C2CCCC2)cc1 (stereo not given),-1.1,1.5,2,-0.1,5,7,0%,.
CC(C)Oc1ccccc1C1Nc2ccccc2C(=O)N1c1ccc2c(c1)OCCO2 (stereo not given),1.5,5.7,52,0.4,10,-4,29%,.
Nn1c(SCC(=O)NC2CCS(=O)(=O)C2)nnc1-c1ccco1 (stereo not given),.,3.6,.,0.6,.,0,-3%,-0.1
O=C(NCc1ccccc1Cl)NC(=O)c1csc([N+](=O)[O-])c1,0.1,7.9,5,-0.7,42,3,1%,-3.6
CCCC(C(=O)NCC1CCCO1)N(Cc1ccco1)C(=O)CNS(=O)(=O)c1ccc(F)cc1 (stereo not given),-2.3,0.7,-8,-0.5,3,-2,2%,.
Cc1nc(Cl)sc1C(=O)Nc1ccccc1,-4.6,-1.2,-21,-1.1,2,-4,-5%,.
Cc1nc2ccc([N+](=O)[O-])cc2[nH]1,1.6,2.4,2,0.1,-14,1,22%,-14
COc1ccc(CN2C(=O)CCC(C(=O)O)C2c2ccccc2)cc1 (stereo not given),0.6,1.3,-9,0.1,-19,-4,3%,-0.8
CCOCCc1nn2c(=O)cc(CSCC(=O)Nc3cc(C)cc(C)c3)nc2s1,?,3.9,11,0.4,-3,-4,.,-2.2
SMILES,RanGTP-Imp inh,LANA-H2A inh,Calb FLC,Bfl-1 A1 inh,T cruzi repl,Beta cell apopt,Vif TR-FRET,MLL AF4-AF9 inh
COc1cccc(Cn2c(NCc3cccnc3)nc3c2c(=O)n(C)c(=O)n3C)c1,0.9,.,2,0.6,-15,9,5%,.
O=C(Cn1c(C(=O)N2CCN(C3CCCCC3)CC2)cc2sccc21)c1ccccc1,-0.6,-2.2,-13,0.6,76*,8,-3%,.
COc1ccc(/C=N\NC(=O)CCN2CCN(c3ccccc3)CC2)cc1OC,4.7,0.8,-9,0.1,-3,-1,-4%,.
O=C(OCCN1CCN(c2ncc(C(F)(F)F)cc2Cl)CC1)c1ccc(F)cc1,1.6,2.2,1,0.6,10,3,26%,.
COc1ccc2c(C)c(C(=O)NCC(C)O)oc2c1OC (stereo not given),1.8,2.6,8,-0.5,-8,11,-3%,.
Cc1noc(C)c1S(=O)(=O)N1CCC(Cc2ccccc2)CC1,3.2,-2.1,2,1.0,10,-1,-6%,.
O=C(CC(NCCc1ccccc1)C(=O)O)Nc1ccc(O)cc1 (stereo not given),3.6,2.7,-6,0.5,-18,-9,11%,.
COc1cccc(NC(=O)CN(c2cccc(OC)c2)S(C)(=O)=O)c1,3.2,3.5,24,0.8,4,0,8%,1.1
C=CCn1c(SCC(=O)NC2CCS(=O)(=O)C2)nnc1-c1ccncc1 (stereo not given),-1.2,2.2,3,0.2,-4,-5,-7%,-0.8
Cc1cc(OCC(=O)Nc2sc3c(c2C#N)CC(C)(C)NC3(C)C)c(C(C)C)cc1Cl,?,-0.5,-3,-1.4,51,7,.,-1.1
COc1ccc(C(=O)NC(=S)NCc2ccco2)cc1,-0.5,2.8,1,-1.1,10,1,5%,-0.1
O=C(Nc1ccon1)c1cnc2sccn2c1=O,4.3,0.8,-8,-0.1,-37,.,-8%,.
Nn1c(SCC(=O)NC2CCS(=O)(=O)C2)nc2scc(-c3ccccc3)c2c1=O (stereo not given),.,.,.,0.2,.,-2,2%,-1.1
CCOc1ccc(NS(=O)(=O)c2ccc(C(=O)N(C)Cc3cccc(OC)c3OC)cc2)cc1,-0.6,-5.4,10,0.6,9,8,-6%,0.2
Cc1cc(C)c(NC(=O)c2cc(C(=O)O)ccc2C(=O)O)c([N+](=O)[O-])c1,4.6,12*,14,0.2,5,3,16%,-0.6
CC1SCCN1S(=O)(=O)c1ccc2ccccc2c1 (stereo not given),1.4,3.1,2,0.2,-19,-8,5%,.
O=C(CCCN1C(=O)C(c2ccccc2)Oc2cccnc21)NCc1ccc(F)cc1 (stereo not given),1.1,8.3,-11,0.5,9,3,1%,-6.3
Brc1ccc2c(c1)C(c1cccnc1)=NNC(c1cccs1)=N2,2.3,0.6,?,0.4,28,-3,14%,.
COc1cc(/C=N/NC(=O)c2ccc3ccccc3c2)ccc1Oc1ccc([N+](=O)[O-])cn1,-1.6,-1.4,17,-0.5,47,8,6%,-2.0
COc1ccc(CC(=O)Oc2ccc(C)cc2Br)cc1S(=O)(=O)N1CCOCC1,-2.8,3.5,-6,0.8,-2,-1,2%,-6.5
O=C(CCc1ccccc1)NNC(=O)c1ccc(F)cc1,2.9,0.0,7,0.4,-9,-6,2%,-0.6
O=C(C[n+]1cccc(C(=O)N/N=C/c2ccc(Br)cc2)c1)c1ccccc1,.,1.3,.,1.0,.,0,-2%,6.7
COc1cccc(N(CC(=O)NCCSc2ccccc2)S(C)(=O)=O)c1,0.8,0.7,32,-5.8,-16,-2,7%,.
COC(=O)c1cccc(C(=O)N2CCCC(CCC(=O)N(C)CCc3ccccn3)C2)c1 (stereo not given),2.5,0.7,27,2.2,4,-9,1%,-0.9
O=S(=O)(Nc1ccccc1)c1ccc(NS(=O)(=O)c2cccs2)cc1,-2.6,-6.8,0,-0.6,-2,1,.,-5.2
SMILES,RanGTP-Imp inh,LANA-H2A inh,Calb FLC,Bfl-1 A1 inh,T cruzi repl,Beta cell apopt,Vif TR-FRET,MLL AF4-AF9 inh
Fc1ccccc1C1c2[nH]c3ccccc3c2CCN1Cc1ccoc1 (stereo not given),0.4,1.2,2,0.9,17,-6,12%,10
CCCCOc1ccc(C(=O)NCC(=O)OC2CCOC2=O)cc1 (stereo not given),-0.5,3.9,4,-0.8,-9,-5,21%,.
O=C1C2Sc3[nH]c(=O)sc3C(c3cc([N+](=O)[O-])ccc3O)C2C(=O)N1c1ccccc1 (stereo not given),-2.7,-2.6,63,0.3,-2,-3,.,5.1
CCOC(=O)c1c(CN2CCOCC2)n(C)c2cc(Br)c(O)c(CN(C)C)c12,0.5&5.8,1.5&-2.4,?,1.0&-0.5,10&13,-4,?,4.6
CCN(CC)S(=O)(=O)c1ccc(C(=O)NCCN(C)C)cc1,-1.8,4.8,6,-0.4,39,-7,?,0.5
O=C(Nc1ccnn1C1CCN(C(=O)c2cnsn2)CC1)c1cccc(F)c1,0.1,-4.8,-8,-0.6,-1,.,-3%,0.2
Cc1noc(C)c1C(=O)Nc1nnc(-c2ccccc2)s1,0.4,3.3,-2,-3.5,2,-6,-5%,.
O=C(c1ccc(S(=O)(=O)N2CCOCC2)cc1)N1CCN(c2ccccc2F)CC1,-1.6,-6.7,10,-0.9,-5,0,0%,.
COc1ccccc1CCC(=O)NNC(=O)c1ccc(Br)cc1,-0.5,-3.3,-3,?,-6,1,.,-4.2
CCOC(=O)c1ccc(NC(=O)COc2ccc(CNCCO)cc2OCC)cc1,?,-0.2,-16,0.4,17,0,27%,2.3
Cn1c(Cc2csc(N)n2)nnc1SCC(=O)NC1CCCCC1,.,-8.7,12,0.1,.,.,15%,.
CC(C)c1ccc(NC(=O)CSc2nc3ccccc3nc2N2CCCC2)cc1,7.2,4.5,-3,-0.4,12,15,.,2.0
CCCONC(=O)Nc1ccccc1[N+](=O)[O-],0.0,0.6,2,0.2,-5,-12,.,.
O=C(CS(=O)(=O)c1cn(Cc2ccc(F)cc2)c2ccccc12)N1CCCCC1,-0.8,0.5,0,-0.8,11,6,68%,.
Cc1cc2c(N=NC(=O)C3CC3c3ccccc3)c(O)[nH]c2cc1Br (stereo not given),5.6,5.3,-1,1.1,28,-2,4%,.
CCc1ccccc1NC(=O)CN1CCN(C(=O)CCC(=O)N2CCC(c3ccccc3)=N2)CC1,.,-3.2,.,-0.8,.,3,-3%,-4.0
O=C(C1CC1)N1CCN(c2ccc(F)cc2)CC1,1.4,4.2,-12,-0.5,-10,2,.,-1.7
Cc1nn(C)c2ncc(C(N)=O)c(Oc3ccc(Cl)cc3)c12,0.0,5.3,2,0.0,4,-4,-18%,0.5
